# Screening data: PubChem, National Center for Advancing Translational Sciences (NCATS)
# StopGo reporter – High Throughput Screening for Foot and Mouth Disease Virus Antivirals | human cells with a luciferase reporter of 2A StopGo recoding; control for the full effect not named in the record | Potency, µM (doses to about 57.9 µM), without a hit: top-dose signal change, negative = less light | 410,000 compounds, 1.2% hits | AID 1159524, 2015; active = well fitted falling curve with a large enough effect; inconclusive = small, poorly fitted or top-dose-only effect; inactive = no such curve, though single readings can be large or run the other way; tested in HEK293T cells; further: on the % scale 0 is the no-effect control and ±100 the full control effect; nearly all actives have a fitted effect of over 45% in size; luciferase light after 4 h
# Marburg entry inh – qHTS for inhibitors of binding or entry into cells for Marburg Virus; Potency, µM (doses to about 37.8 µM), for inactives: top-dose activity change, negative = inhibition, actives largely listed as inhibitors; 300,000 compounds, 1.8% hits; Marburg virus pseudotyped entry inhibition, cell reporter; control for the full effect not named in the record; about a third of the inactives were read at about 46 µM; active = well fitted inhibition curve with a large enough effect; inconclusive = small, poorly fitted or top-dose-only effect, or effect the other way; inactive = flat fitted curve, though single readings scatter; tested in HEK293 cells; about a fifth of its hits are not listed in these tables; further: on the % scale 0 is the no-effect control and ±100 the full control effect; luciferase read-out
# NS1 inh – qHTS Assay for Inhibitors of Influenza NS1 Protein Function; Potency, µM (highest dose often 46.1 µM), for inactives: top-dose activity, positive = more growth; 270,000 compounds, 0.4% hits; S. cerevisiae slowed by influenza A NS1, growth recovery by OD600; further: actives are rising curves; nearly all actives have a fitted effect of over 50% in size
#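 Read-out: OD600 growth recovery of NS1-expressing budding yeast. Cells grown overnight at 30C in -URA glucose medium, washed, resuspended and diluted 1:100 in 2% galactose assay medium, pH 6.0. Same strain lacking NS1 served as positive control.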
# Cruzain noTriton – qHTS Assay for Promiscuous and Specific Inhibitors of Cruzain (without detergent) | Potency, µM, inactives show max response, negative = inhibition, usual class: inhibitors | 200,000 compounds, 2.3% hits | Cruzipain (Trypanosoma cruzi), P25779 | AID 1476, 2009 | purified cruzain, Z-FR-AMC fluorescence, no detergent; active means well fitted curve in the direction sought with a large enough effect; inconclusive means small, poorly fitted or top-dose-only effect, or another doubt; inactive means no such curve, though single readings can be large; an effect the other way counts as inactive or inconclusive;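 further: plate controls were enzyme without inhibitor for no effect and buffer without enzyme for full effect; nearly all actives have a fitted effect of over 40% in size; top concentration of the series not given in the record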
# Target sequence (P25779 123-467 limits assumed): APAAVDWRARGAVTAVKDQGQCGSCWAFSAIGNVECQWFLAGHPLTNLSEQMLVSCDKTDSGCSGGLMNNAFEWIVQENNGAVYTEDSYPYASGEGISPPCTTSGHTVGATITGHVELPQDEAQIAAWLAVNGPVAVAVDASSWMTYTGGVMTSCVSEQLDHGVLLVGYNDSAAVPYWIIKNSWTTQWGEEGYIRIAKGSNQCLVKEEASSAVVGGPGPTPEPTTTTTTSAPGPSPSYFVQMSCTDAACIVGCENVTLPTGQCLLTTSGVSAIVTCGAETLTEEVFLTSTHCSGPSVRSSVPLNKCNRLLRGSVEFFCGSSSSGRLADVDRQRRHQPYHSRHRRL
#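 Purified cruzain at 1.5 nM, pre-incubated 15 min with compound at room temperature in 100 mM sodium acetate pH 5.5, 5 mM DTT, 0.00005% Triton X-100. Reaction started with 2 uM Z-FR-AMC; AMC fluorescence increase over 60 s gives rate.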
# Cruzain Triton – qHTS Assay for Promiscuous and Specific Inhibitors of Cruzain (with detergent); Potency, µM, for inactives: max response, negative = inhibition, actives largely listed as inhibitors; Cruzipain (Trypanosoma cruzi), P25779; purified cruzain, Z-FR-AMC fluorescence, 0.01% Triton; 200,000 compounds, 0.43% hits; active means well fitted curve in the direction sought with a large enough effect; inconclusive means small, poorly fitted or top-dose-only effect, or another doubt; inactive means no such curve, though single readings can be large; an effect the other way counts as inactive or inconclusive;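 further: plate controls were neutral wells for no effect and buffer without enzyme for full effect; nearly all actives have a fitted effect of over 40% in size; top concentration of the series not given in the record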
#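 Cysteine protease activity tested under reducing, mildly acidic conditions (100 mM sodium acetate pH 5.5, 5 mM DTT) plus 0.01% Triton X-100. Cruzain 1.5 nM; substrate Z-FR-AMC 2 uM; 15 min compound preincubation at room temperature.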
# RE007 growth inh – qHTS Assay for Inhibitors of the HIV-1 protein Vpr; Potency, µM (series often up to 92.2 µM), for inactives: at the highest dose activity change, negative = less growth; S. pombe RE007 Vpr strain, BacTiter-Glo ATP luminescence, 24 h; control for the full effect not named in the record; AID 651644, 2012; 360,000 compounds, 0.21% hits; active = well fitted falling curve with a large enough effect; inconclusive = small, poorly fitted or top-dose-only effect; inactive = no such curve, though single readings can be large or run the other way;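 further: on the % scale 0 is the no-effect control and ±100 the full control effect; nearly all actives have a fitted effect of over 50% in size; the assay follows cell death caused by Vpr and the record does not say whether a fall means rescue or toxicity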
#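 Fission yeast RE007 carrying one integrated HIV-1 vpr copy, seeded at OD 0.01 in PMG+AL medium with 23 nL pinned compound. Grown 24 h at 30 degrees; viability read by BacTiter-Glo luminescence after 5 min.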
# SARS PLpro yeast – qHTS of Yeast-based Assay for SARS-CoV PLP. Potency, µM (titrated, usually from 32.9 µM), for the others: top-dose activity, positive = growth rescue. AID 485353, 2010. 330,000 compounds, 0.19% hits. S. cerevisiae expressing SARS-CoV PLpro, growth rescue; control for the full effect not named in the record; further: 0% is about no effect; nearly all actives have a fitted effect of over 55% in size; growth read by luminescence after 48 h
# LASV entry inh – qHTS for Inhibitors of binding or entry into cells for Lassa Virus | Lassa virus pseudotype entry inhibition, cell reporter; control for the full effect not named in the record | Potency, µM (doses to about 37.9 µM), inactives show top-dose activity change, negative = inhibition, most hits filed as inhibitors | 300,000 compounds, 1.2% hits | AID 540256, 2011; active means well fitted inhibition curve with a large enough effect; inconclusive means small, poorly fitted or top-dose-only effect, or effect the other way; inactive means flat fitted curve, though single readings scatter; tested in HEK293 cells; further: on the % scale 0 is the no-effect control and ±100 the full control effect; nearly all actives have a fitted effect of over 50% in size; luciferase read-out
# * hit, by the source's call; ? = inconclusive; nt = not tested or not shown; & = joins results of further samples; [ ] = remark or other dose. Unless noted, the call rests on the fitted dose curve; in most records, active means well fitted rising curve with a large enough effect; inconclusive means small, poorly fitted or top-dose-only effect; inactive means no such curve, though single readings can be large or run the other way. Potency means the concentration at half of the fitted maximal effect.
# Under each structure – Cruzain Triton	StopGo reporter	Cruzain noTriton	RE007 growth inh	SARS PLpro yeast	Marburg entry inh	LASV entry inh	NS1 inh
O=c1cc(N2CCc3ccccc32)[nH]c(=O)n1-c1ccccc1Cl
    nt	-13%	nt	3%	2%	-9%[46.1 µM]	9%[46.1 µM]	nt
O=C(Nc1cccc(Cl)c1)c1cc(S(=O)(=O)N2CCOCC2)cs1
    nt	?	nt	9%	1%	?	-28%	-3%
CC(=O)Nc1c2c(nn1-c1cccc(C)c1)CSC2
    nt	23%	nt	-3%	6%	nt	nt	7%
O=C(NCc1ccc(F)cc1)c1cc(-c2cccs2)on1
    -9.0%	76%[activator]	-11%	8%	-6%	-7%	?	-11%
C=CCN(c1ccccc1C(=O)O)S(=O)(=O)c1ccc(C)cc1
    nt	-12%	nt	19%	0%	17%[46.1 µM]	-15%	-5%
CCOc1ccc(-n2ccnc2SCC(=O)NCc2ccc3c(c2)OCO3)cc1
    6.3%	-25%	7%	-1%	13%	-29%[46.1 µM]	-1%	-64%
CCCN1C(=O)C(Cc2nc3ccccc3c(=O)n2C)c2ccccc21 (stereo not given)
    1.8%	-23%	4%	30%	-13%	17%[46.1 µM]	11%	-27%
CCCCCC1CCC(c2nnc(SCC(C)=O)o2)CC1 (stereo not given)
    nt	-12%	nt	6%	1%	?	22%	10%
Nc1nc2c(s1)CC(c1ccccc1)CC2 (stereo not given)
    -1.2%	0%	-20%	-7%	0%	?	5%	-36%
Cc1ccc(S(=O)(=O)NC(Cc2ccc(Cl)cc2)C(=O)O)cc1 (stereo not given)
    nt	-7%	nt	5%	-1%	nt	nt	1%
O=C(OCC(=O)N1CCc2ccccc21)c1cccnc1
    5.2%	13%	2%	2%	-9%	?	4%	-5%
COC(=O)CSC1=C(C#N)C(c2sccc2C)CC(=O)N1 (stereo not given)
    -6.6%	?	-6%	-1%	3%	?	-6%	8%&-16%
COc1ccccc1N=C1SCC(=O)N1c1ccccc1OC
    -2.7%	?	2%	-13%	4%	20%	-2%	-4%
CCN1CCOC(c2ccccc2)C1 (stereo not given)
    nt	-2%	nt	-12%	nt	27%	17%	nt
CC(=O)N1CCc2c(sc(NC(=O)Cc3ccccc3)c2C#N)C1
    nt	1%	nt	-1%	1%	22%[46.1 µM]	0%[46.1 µM]	1%
FC(F)(F)c1ccc(/C=N/n2c(C3CCCCC3)n[nH]c2=S)cc1
    nt	-7%	nt	6%	-2%	nt	nt	4%
CN(C)c1ccc(CN(CC2CCCO2)C(=O)c2cccs2)cc1 (stereo not given)
    nt	-9%	nt	21%	-4%	nt	nt	5%
Cc1csc(NC(=O)C2CCN(C(=O)CSc3nnc(C)n3Cc3ccccc3)CC2)n1
    -5.5%	40%[activator]	?	5%	-1%	-13%	2%	0%
Cc1occc(=O)c1OCc1ccc(F)cc1
    nt	-23%	nt	5%	-1%	nt	nt	-1%
CN(CCOc1ccccc1)C(=O)c1ccc(OC2CCN(C(=O)C3CC3)CC2)cc1
    nt	?	nt	3%	1%	-15%[46.1 µM]	?	-5%
O=C(Nc1cnc2ccccc2c1)C1COc2ccccc2O1 (stereo not given)
    -8.4%	20%	4%	?	-1%	-17%	?	-47%
O=C1NC2=C(C(=O)CCC2)C(c2cccc([N+](=O)[O-])c2)N1 (stereo not given)
    nt	-11%	nt	1%	3%	-22%	12%	-3%
CSc1cccc(NC(=O)CN(c2cccc(C)c2)S(C)(=O)=O)c1
    1.5%	-7%	11%	-12%[3.69 µM]	0%	-2%	12%	-65%
OC(c1cc(-c2ccc(Cl)cc2)nc2ccccc12)C1CCCCN1 (stereo not given)
    nt	?	nt	5%	1%	nt	nt	-4%
CCn1c(SCC(=O)Nc2ccc3c(c2)OCCO3)nnc1-c1ccncc1
    nt	-8%	nt	25%	2%	16%[46.1 µM]	4%	11%
COc1ccc(-n2c(=O)c3sc4ccccc4c3n(Cc3ccccc3)c2=O)cc1
    -1.3%	-16%	-10%	nt	nt	?	-3%[46.1 µM]	nt
O=c1c(/C=N/Nc2ccccc2)c(Sc2nnnn2-c2ccccc2)nc2ccccn12
    -5.7%	102%[activator]	16µM*	8%	-3%	-10%	6%	7%
COCCNC(=O)c1cc2nc(-c3ccccc3)cc(C)n2n1
    nt	-5%	nt	12%	-1%	10%[46.1 µM]	-10%	3%
COC(=O)c1ccc(NC(=O)C(=O)NCCc2sc3nc(-c4ccc(OC)cc4)nn3c2C)cc1
    0.1%	8%	-4%	nt	nt	nt	-1%[46.1 µM]	nt
O=C(NN1CCN(Cc2ccccc2)CC1)c1ccc(Cl)cc1
    nt	-26%	nt	1%	1%	-23%[46.1 µM]	1%	-3%
COc1ccc(/C=N\NC(=O)c2ccc(Cn3cc(Br)c([N+](=O)[O-])n3)o2)c(OC)c1C
    nt	14%	nt	13%	0%	nt	nt	3%
CCOC(=O)Cc1nnc(Nc2cccc(C)c2)c2ccccc12
    1.9%	-6%	8%	-12%	nt	1%	18%	5%
CCN(Cc1ccccc1)Cc1c(O)ccc2c(=O)c(-c3ccc(Cl)cc3)coc12
    -2.1%	10%	-9%	nt	nt	0%[46.1 µM]	?	nt
Cc1ccc(NC(=O)Cn2c(=O)n(Cc3ccco3)c(=O)c3ccccc32)cc1
    -6.7%	6%	-17%	nt	nt	-4%[46.1 µM]	1%[46.1 µM]	nt
CN(CC(=O)Nc1ccc(N2CCOCC2)cc1)C(=O)CCCOc1ccc(Cl)cc1Cl
    nt	-27%	nt	6%	4%	?	-25%	nt
CCOc1ccc2c(CC)cc(=O)oc2c1OCC
    -4.5%	-1%	-4%	18%	-9%	?	?	5%
O=C(Nc1ccc(OC(F)(F)F)cc1)Nc1cccc([N+](=O)[O-])c1
    -15%	-4%	0%	3%	-69%	?	?	-29%
CC(=O)C1(C)C(=O)N(c2ccc(F)cc2)C(=O)N1c1ccc(F)cc1 (stereo not given)
    nt	-15%	nt	2%	nt	2%	18%	nt
Cc1ccc(S(=O)(=O)N2CCC(C(=O)NNC(=O)c3ccncc3)CC2)cc1
    nt	-3%	nt	-2%	0%	12%[46.1 µM]	7%[46.1 µM]	0%
O=C(/C=C/c1ccc([N+](=O)[O-])cc1)c1ccccc(=O)c1O
    nt	13µM*	nt	-25%	nt	?	?	nt
Cc1ccc(C(=O)Nc2nc(-c3ccccc3)c(-c3ccccc3)o2)cc1
    -6.1%	23%	3%	0%	10µM*	-12%[46.1 µM]	-6%	-14%
Cc1ccc(NC(=O)Cc2coc3c(C)c(C)ccc23)cc1Cl
    -9.7%	-7%	-27%	nt	nt	-5%[46.1 µM]	0%[46.1 µM]	nt
O=C(CN1CCN(Cc2ccccc2Cl)CC1)N/N=C/c1cccs1
    nt	-5%	nt	2%	-1%	-10%[46.1 µM]	?	-3%
CCCN1C=CC(=C/C=C(\C#N)C(=O)OCC)C=C1
    -19%	nt	-19%	nt	3%	1%	nt	14%
O=C1CSC(c2ccccn2)N1c1ccccc1 (stereo not given)
    4.0%	-4%	-4%	12%	-1%	-10%	-18%[14.3 µM]	6%
COCCNC(=S)N1CCN(c2nc(-c3ccc(Cl)cc3)cs2)CC1
    nt	?	nt	-10%	2%	-22%[46.1 µM]	28%[46.1 µM]	2%
CCCN(CCC)S(=O)(=O)c1ccc(NC(=O)c2cc(C(=O)OC)cc([N+](=O)[O-])c2)cc1
    -2.3%	-25%	-2%	13%	7%	-20%	2%	3%
CCOC(=O)N1CCN(C2=C(NS(=O)(=O)c3ccccc3)C(=O)c3ccccc3C2=O)CC1
    nt	-10%	nt	-2%	-2%	2%[46.1 µM]	?	8%
CCCCN(CC)CCCNC(=O)C1CCN(c2ncnc3c2sc2cccc(F)c23)CC1
    nt	-4%	nt	-3%	-2%	?	?	nt
O=C(C1=C(O)C(=O)N(CCc2ccccc2)C1c1cccnc1)c1ccco1 (stereo not given)
    -6.0%	9%	-3%	-5%	11%	5%	-13%	-14%
COc1ccccc1OCCNC(=O)C1CCN(C(C)=O)CC1
    nt	-2%	nt	0%	1%	-6%[46.1 µM]	nt	-3%
O=C(Nc1cccc(C(=O)NC2CCCCC2)c1)c1ccccc1
    nt	9%	nt	-11%	-3%	?	?	-9%
CCC(=O)c1ccc(OCC(O)CNCc2ccc(F)cc2)cc1 (stereo not given)
    -4.9%	-4%	-4%	nt	-15%	10%	6%	-1%
S=C(NCC1CCCCC1)Nc1cccnc1
    -0.6%	19%	8%	-11%	-3%	16%	-2%	2%
Nc1cc(Cl)ccc1N1CCCCC1
    nt	-3%	nt	-2%	0%	nt	nt	2%
O=c1oc2ccccc2cc1-c1csc(NN=C2CCCCC2)n1
    -26%	-7%	20µM*	-14%	8%	5%	?	-11%
S=C(NCCCN1CCOCC1)Nc1ccc(Cl)c(Cl)c1
    -7.1%	-15%	-21%	nt	-14%	-35%	13%	11%
CCN(CC)C(=O)c1cnn(-c2ccc(F)cc2)c1-n1cccc1
    0.9%	-16%	1%	nt	nt	nt	1%[46.1 µM]	nt
COc1ccc(C2CC(=O)c3cnn(-c4nc(C)cc(C)n4)c3C2)cc1OC (stereo not given)
    nt	-20%	nt	-9%	0%	-9%	4%	-4%
CN1CCN(/N=C/c2c(O)n(Cc3ccc(F)cc3)c(=O)[nH]c2=O)CC1
    nt	-4%	nt	4%	0%	nt	nt	-2%
CC1=CC(c2ccc(Cl)cc2)n2nc(NC(=O)CCCC(=O)O)nc2N1 (stereo not given)
    nt	-9%	nt	8%	1%	?	10%[46.1 µM]	11%
COc1cccc(/C=C/c2nc3c(cnn3-c3ccccc3)c(=O)[nH]2)c1
    nt	-6%	nt	14%	0%	nt	nt	-1%
Cc1cccc(NC(=O)CSc2nc3c(c(=O)[nH]2)CCCC3)c1C
    1.4%	nt	3%	18%	0%	1%	8%	5%
